Measles inh: inhibitors of measles virus growth in infected cells; AID 745; actives 0.1% (n = 33,000); z-score (no concentration beside the values); infected Vero cells, GFP fluorescence, 64 h; active compounds read low;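 active = z-score under -3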;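 also: score is relative to mean and SD of the compound wells of a plate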
An asterisk follows results filed as active. Only part of the results is shown; count on the stated rates, not on these rows.

Compound	Measles inh
COCCOC(=O)C1=C(C)NC2=C(C(=O)CCC2)C1c1coc2ccc(C)cc2c1=O (stereo not drawn)	-1.1
CC(C)(C)CC(C)(C)c1ccc(OCC(=O)Nc2nccs2)cc1	-0.69
O=C(O)C1CSC(c2cccs2)=N1 (stereo not drawn)	0.25
O=C(NCC1COc2ccccc2O1)c1ccc(Cn2c(=S)[nH]c3ccccc3c2=O)cc1 (stereo not drawn)	-0.77
Cc1cc(C)cc(C(=O)Nc2nc3ccc(Cl)cc3s2)c1	-1.3
O=C(C1CCC1)N1CCc2cc(S(=O)(=O)NCCc3ccccc3)ccc21	2.5
Cc1nc2sc(C(=O)Nc3ccc4c(c3)OCO4)c(N)c2c(C)c1C	-0.75
COc1cccc(C(=O)CC(=O)C(=O)Nc2ccc(I)cc2C)c1	-1.3
COCCNC(=O)c1ccc(N2CC3CC(C2)c2cccc(=O)n2C3)c(NC(=O)c2cc3ccccc3oc2=O)c1 (stereo not drawn)	0.89
CC1=C(C(=O)OCCOC(C)C)C(c2cccc(Cl)c2)NC(=O)N1 (stereo not drawn)	-1
CC[n+]1c(/C=C2/Sc3ccccc3N2C)ccc2ccc(C)cc21	7.6
CCOC(=O)c1c(C)n(-c2ccc(OCC)cc2)c2ccc(OC(C)=O)cc12	-1.2
COc1ccc(Br)c(C(=O)Nc2cc(C(=O)NCc3cccs3)ccc2N2CC3CC(C2)c2cccc(=O)n2C3)c1 (stereo not drawn)	0.03
CC(=O)OC12CC3C(C1C(C)=NN2C(=O)C(=O)N1N=C(C)C2C4C(CC21OC(C)=O)C4(C)C)C3(C)C (stereo not drawn)	-0.74
Cc1ccc(C(=O)Oc2cccc(NC(=O)c3ccco3)c2)cc1S(=O)(=O)N1CCOCC1	0.56
CC(=O)n1c(=O)oc2ccccc21	-0.15
Cc1ccc(-n2nc3ccc(NC(=O)c4ccc(Cl)c([N+](=O)[O-])c4)cc3n2)cc1C	-0.89
COc1cc(-c2nc(Nc3ccccc3Cl)c3ccccc3n2)cc(OC)c1OC	-0.82
CCOC(=O)c1[nH]c2ccccc2c1NC(=O)c1ccccc1Br	0.07
Cc1ccc(CN2CCCN(S(=O)(=O)c3ccc(Br)s3)CC2)cc1	0.26
CC(=O)Nc1n[nH]c(S(C)(=O)=O)n1	0.12
O=C1CCCC2=C1C(c1ccc(OCc3ccc(F)cc3)cc1)C1=C(CCCC1=O)N2	-1.1
Cc1ccc(NC(=O)C2COc3ccccc3O2)nc1 (stereo not drawn)	-0.09
CCOC(=O)C1=C(C)NC2=C(C(=O)C(C(=O)OCC)C(c3cccc(OC)c3)C2)C1c1ccccc1C(F)(F)F (stereo not drawn)	0.3
O=C(O)CCS(=O)(=O)c1ccc(Cl)cc1	-0.1
CCOc1ccc(/C(O)=C2\C(=O)C(=O)N(CCN3CCOCC3)C2c2ccc(Cl)cc2)cc1C (stereo not drawn)	-0.6
Cc1ccc(OCC(=O)Nc2cc(-c3nc4ncccc4o3)ccc2C)c(C)c1	3
CCCCNC(=O)c1c[nH]c2ccc(S(=O)(=O)N3CCCC(C)C3)cc2c1=O (stereo not drawn)	0.94
CC(Nc1cc(N2CCCC2)ccc1[N+](=O)[O-])C12CC3CC(CC(C3)C1)C2 (stereo not drawn)	-0.11
CCN1CCCC1CNC(=O)c1cc(S(N)(=O)=O)ccc1OC (stereo not drawn)	0.68
COc1ccc(NC(=O)c2ccc(S(=O)(=O)c3ccc(Oc4ccccc4)cc3)cc2)cc1	-0.17
Cc1cc(NS(=O)(=O)c2ccc(CC(C)C)cc2)no1	-0.14
Cc1cc2nn(-c3ccc(Cl)cc3)nc2cc1NC(=O)c1cccs1	0.92
COc1ccc(S(=O)(=O)NCC2CCC(C(=O)NC3CCCC(C)C3C)CC2)cc1 (stereo not drawn)	0.8
CCOc1ccc(-n2c(SCC(=O)c3ccccc3)nc3c([nH]c4ccccc43)c2=O)cc1	-1.9
CC(=O)Oc1cc(-c2cccc(C(F)(F)F)c2)c2oc(=O)sc2c1	-0.35
CCC(NC(=O)c1cc2ccccc2cc1OC)C12CC3CC(CC(C3)C1)C2 (stereo not drawn)	0.09
O=C(Nc1ccc(-c2nc3cc(Cl)ccc3o2)cc1)c1ccc(Cl)c([N+](=O)[O-])c1	-0.13
Cc1ccccc1N1CCN(C(=O)c2c(C)oc3cc4c(C(=O)N5CCN(c6ccccc6C)CC5)c(C)oc4cc23)CC1	-0.33
CCC(C)Nc1c(N)c(=O)oc2ccccc12 (stereo not drawn)	-0.16
CCOCCSc1nc2c(c(=O)n(C)c(=O)n2C)n1Cc1ccccc1	-0.13
Cc1cc(C(F)(F)F)nc(SCCNC(=O)c2c(Cl)cnn2C)n1	-0.77
COc1cc(OC)cc(-c2nc(-c3ccncc3)no2)c1	-0.91
Cc1sc2ncn(CC(=O)NCCC3=CCCCC3)c(=O)c2c1S(=O)(=O)N1CCOCC1	0.45
CCOC(=O)CNc1c(-c2ccc(Cl)cc2)nc2cnccn12	1.3
CC1=C(C(=O)OCCOc2ccccc2)C(c2ccccc2)NC(=O)N1 (stereo not drawn)	-0.74
CC(=O)c1ccc(NC(=O)c2cc3nc(-c4ccc([N+](=O)[O-])cc4)cc(C(F)(F)F)n3n2)cc1	-0.75
CCCc1ccc(-c2ccc(C(=O)Nc3ccc(C(=O)OC)cc3)cc2)nc1	0.68
COc1ccc(C(=O)Cn2c(=O)n(Cc3ccccc3)c(=O)c3cc(Cl)ccc32)cc1	-0.34
O=C(Nc1cccc(NC(=O)c2ccc(-c3cccc(Br)c3)o2)c1)c1ccco1	2.9
CC1CC(C)CN(C(=O)Cn2c(=O)n(CCC(=O)NCc3ccccc3)c(=O)c3sccc32)C1 (stereo not drawn)	2.4
COC(=O)C(NC(C)=O)(Nc1sc2c(c1C(N)=O)CCCC2)C(F)(F)F (stereo not drawn)	0.18
O=C(C1CCN(S(=O)(=O)c2cccc3nonc23)CC1)N1CCN(c2ccccc2)CC1	-0.85
O=C(Nc1c[nH]c(=O)[nH]c1=O)c1ccc2c(c1)C(=O)N(C1CCCCC1)C2=O	0.44
CCC(C)NC(=O)c1ccc(CNS(=O)(=O)c2ccc(C)cc2)cc1 (stereo not drawn)	1.6
CCOc1cc(C(c2c(C)n(C)n(-c3ccccc3)c2=O)c2c(C)n(C)n(-c3ccccc3)c2=O)cc(Br)c1O	2.1

The listing continues.
Compound	Measles inh
O=C(Nc1ccc2c(c1)CCC2)c1ccc2c(=O)n(-c3ccccc3)c(=S)[nH]c2c1	0.54
COC(=O)c1sc(NC(=O)C2c3ccccc3Oc3ccccc32)nc1C	2.1
O=C(CC1N=C2c3ccccc3N=C(SCc3ccccc3F)N2C1=O)NCc1ccccc1 (stereo not drawn)	-0.19
COC(=O)C(O)(c1ccc(O)cc1C)C(F)(F)F (stereo not drawn)	-0.31
O=c1[nH]c(=O)n(CCO)c2n[nH]nc12	1.3
Cc1sc2c(c1C)c(=O)n(-c1ccccc1)c1n[nH]c(=S)n21	-0.84
CCOC(=O)c1cc2c(=O)[nH]c3ccc(C)cc3c2s1	0.13
O=C(CSc1nc2[nH]ncc2c(=O)n1-c1cccc2ccccc12)NC1CCCCC1	-0.17
CC1=C(C)CS(=Nc2cccc([N+](=O)[O-])c2)N(S(=O)(=O)c2ccccc2)C1 (stereo not drawn)	0.25
COc1cc2c(cc1OC)C(C(=O)N1CCN(C(=O)c3ccco3)CC1)C1c3ccccc3CCN1C2=O (stereo not drawn)	-1
CCCCCCSc1nnc2n(C)c(=O)c3c4c(sc3n12)COC(C)(C)C4	-0.54
CCOC(=O)CSc1nc(C)c(Cl)c(C)c1C#N	0.08
CCc1ccc(C2CC(=O)Nc3cc4c(cc32)OCO4)cc1 (stereo not drawn)	0.89
CCn1cc(C(=O)N2CC=C(c3ccccc3)CC2)c(=O)c2ccc(C)nc21	0
CS(=O)(=O)N1CCCC(C(=O)N2CCCCC2)C1 (stereo not drawn)	0.35
CN(C)c1ccc(NC(=O)CSc2nc(-c3cccs3)cc(C(F)(F)F)n2)cc1	-0.54

Exported as labelled records: 4 of the compounds above
canonical_smiles: COc1cc2c(cc1OC)C(C(=O)N1CCN(C(=O)c3ccco3)CC1)C1c3ccccc3CCN1C2=O (stereo not drawn)
  Measles inh: -1

canonical_smiles: CCCCCCSc1nnc2n(C)c(=O)c3c4c(sc3n12)COC(C)(C)C4
  Measles inh: -0.54

canonical_smiles: CCOC(=O)CSc1nc(C)c(Cl)c(C)c1C#N
  Measles inh: 0.08

canonical_smiles: CCc1ccc(C2CC(=O)Nc3cc4c(cc32)OCO4)cc1 (stereo not drawn)
  Measles inh: 0.89

Going on with the list.
Compound	Measles inh
O=c1cc(C(F)(F)C(F)F)oc2c1ccc1ccccc12	1.3
O=C1CSC(c2ccc([N+](=O)[O-])cc2)N1CC12CC3CC(CC(C3)C1)C2 (stereo not drawn)	-0.39
CN(C)CCN1C(=O)C(=O)/C(=C(/O)c2ccccc2)C1c1ccccc1 (stereo not drawn)	0.61
Cn1c2c(c(=O)n(C)c1=O)C(c1cc([N+](=O)[O-])c(N3CCOCC3)cc1N1CCOCC1)O2 (stereo not drawn)	0.33
CCOC(=O)CNC(=O)CSc1nc(C)cc(C)c1C#N	-0.82
Cc1cccc(NC(=O)c2ccccc2C(=O)O)c1	0.24
O=C1CCCN1Cc1cc(Cl)c2cccnc2c1O	-1.8
O=S(=O)(c1ccc2ccccc2c1)N1CCN(Cc2ccccc2Cl)CC1	-1.5
COc1ccc(-c2nnc(NC(=O)c3ccc(S(=O)(=O)N(C)C)cc3)o2)cc1	-0.48
CCCCc1sc(-c2ccc(N(C)C)cc2)nc1C	-0.68
CCC(=O)Nc1nc2c(c3c1c(=O)oc1ccccc13)CC(C)CC2 (stereo not drawn)	-0.59
COc1ccc(-c2coc3c(C)c4oc(=O)c5ccccc5c4cc23)cc1F	-0.5
CCN(CC)C(=O)c1ccc2c(=O)n(Cc3ccccc3)c(=S)[nH]c2c1	0.51
COc1ccc(NC(=O)c2ccc(NS(=O)(=O)c3cccs3)cc2)cc1	-1
Cc1c(OCc2ccccc2Cl)ccc2c3c(c(=O)oc12)CCC3	0.09
CC(C)(C)NC1=NC(C(F)(F)F)(C(F)(F)F)NC(=O)N1	-0.47
OCCOCCNc1ncnc2nc[nH]c12	-0.73
Cc1ccc(C)c(N2CCN(C(=O)c3ccc(S(=O)(=O)c4ccc(F)cc4)c([N+](=O)[O-])c3)CC2)c1	0.75
CC1(C)NN=C(N)SC1=O	-1.6
C(=Cc1ccccc1)C1=Nc2ccccc2NC(c2ccccc2)C1 (stereo not drawn)	0.22
COc1ccc(C(=O)Nc2nc3c(ccc4ccccc43)s2)c(OC)c1	0.19
Cc1ccc(Oc2ccc3c(c2)C(=O)N(c2ccccc2O)C3=O)cc1C	-0.63
COc1cc(OC)cc(C(=O)Nc2cc(-c3nc4ccccc4o3)ccc2OC)c1	0.28
CC(C)C(NS(=O)(=O)c1cccs1)C(=O)Nc1cccc(F)c1 (stereo not drawn)	0.32
COC(=O)C1CC(=O)N(c2ccc(Cl)cc2)C1 (stereo not drawn)	0.63
O=c1oc2c(CN3CCN(CCO)CC3)c(O)ccc2cc1-c1nc2ccccc2s1	8.8
COC(=O)C1=C(C)NC(=S)NC1c1sccc1C (stereo not drawn)	-0.95
Oc1ccc(Br)cc1CN1CCN(Cc2c[nH]c3ccccc23)CC1	-0.05
COc1ccc(-c2csc(=Nc3ccccc3)n2-c2ccccc2)cc1OC	-0.16
CCc1ccc(-c2cn3c4ccccc4nc3n2CCCCl)cc1	-1.5
COc1ccc(Cc2nc(-c3ccc(Cl)cc3)no2)cc1OC	1.9
Cc1c(C(=O)N2CCCCC2C)sc2ncn(CC(=O)N3CC(C)CC(C)C3)c(=O)c12 (stereo not drawn)	-0.75
COc1ccc(C2CC(=O)C3=C(C2)NC(C)=C(C(=O)OCC(C)C)C3c2cc3c(cc2Br)OCO3)cc1 (stereo not drawn)	-0.32
O=C(CSc1nc(-c2ccco2)cc(C(F)(F)F)n1)NCc1ccncc1	0.24
CC(=O)Nc1scc(-c2ccccc2)c1C(=O)N1CCOCC1	1.6
Clc1cccc2c1nc(-c1ccccc1)n1nnnc21	0.19
O=C(NCc1ccc2c(c1)OCO2)C1CCN(S(=O)(=O)N2CCCCC2)CC1	-0.61
COc1cc2c(cc1OC)C(c1ccc(Cl)cc1)OC1=C2C(=O)c2ccccc21 (stereo not drawn)	0.25
CC(C)(C)c1cc(C(F)(F)F)n2nc(-c3ccccc3)cc2n1	-1.2
C=CCc1c(C)nc(SCC(=O)Nc2ccc(Br)cc2)[nH]c1=O	0.58
Cc1nn(C(C)(C)C)c(OC(=O)CCc2ccccc2)c1S(=O)(=O)c1ccccc1	0.88
CCOC(=O)c1c(NC(=O)COc2ccc(C)cc2Br)sc(C(C)=O)c1C	0.31
CCc1ccc(C2C(C(=O)OC)=C(N)OC3=C2C(=O)CC(C)(C)C3)cc1 (stereo not drawn)	-0.83

Grouped by structure: the entries above containing a tert-butyl group.
Compound	Measles inh
CC(C)(C)CC(C)(C)c1ccc(OCC(=O)Nc2nccs2)cc1	-0.69
CC(C)(C)NC1=NC(C(F)(F)F)(C(F)(F)F)NC(=O)N1	-0.47
CC(C)(C)c1cc(C(F)(F)F)n2nc(-c3ccccc3)cc2n1	-1.2
Cc1nn(C(C)(C)C)c(OC(=O)CCc2ccccc2)c1S(=O)(=O)c1ccccc1	0.88
